# High-throughput results as filed in PubChem.
# GIV-Gai inh: GIV-Galpha-i interaction inhibition. Galpha-i3/FITC-GIV peptide fluorescence polarization, 90 min; stronger effect = lower value; scaled: aluminum fluoride 0%, vehicle 100%. AID 1224905. actives 0.42% (n = 210,000). percent of control (FP), % (no concentration beside the values);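 active = replicate mean at 85% of control or lower, very high polarization wells dropped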;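 also: wells of about 15 µL received 100 nL stock; the first replicate is given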
# Target sequence (P08753 whole entry, looked up): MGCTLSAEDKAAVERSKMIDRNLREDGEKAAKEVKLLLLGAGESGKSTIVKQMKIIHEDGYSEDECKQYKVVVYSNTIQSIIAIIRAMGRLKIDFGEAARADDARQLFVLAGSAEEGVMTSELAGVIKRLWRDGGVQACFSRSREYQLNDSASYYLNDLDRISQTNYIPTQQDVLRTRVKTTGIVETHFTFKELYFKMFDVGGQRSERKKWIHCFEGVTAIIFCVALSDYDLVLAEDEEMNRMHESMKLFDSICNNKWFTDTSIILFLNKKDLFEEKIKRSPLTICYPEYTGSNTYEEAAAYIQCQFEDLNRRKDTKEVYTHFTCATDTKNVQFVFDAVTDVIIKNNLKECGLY
# HCMV NEC inh: disrupts HCMV UL50-UL53 complex binding; HTRF UL50-UL53 interaction, normalized percent inhibition; inhibition, % (test concentration not listed); actives 0.15% (n = 190,000);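 active = both replicates at 50% or more, plus weaker picks with an unusually low signal ratio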;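 also: stock transfer was 100 nL into about 20 µL; 0% = negative control wells and 100% = wells with untagged competitor protein; inactives centre near -12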
# Sa growth 42C: S. aureus growth inhibition; S. aureus RN4220 growth, OD600, 20 h, 42 °C; stronger effect = lower value; relative growth, % (no concentration beside the values); actives 0.53% (n = 170,000); AID 720641;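 active = growth at 42 °C up to 50% and 20 or more points under that at 30 °C, or under 10% at both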;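 also: 300 nL library stock went into each well; scaled to the means of positive and negative controls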
# Sa growth 42C second temp: also measured in Sa growth 42C; calls as there; relative growth, %; measured here: growth at 30 °C;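 optical density after 20 h as mean of two plates; 100% = untreated growth and lower means inhibition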
# An asterisk follows results filed as active; x = no result given; & = joins results of further samples.
# Every second line gives: GIV-Gai inh	HCMV NEC inh	Sa growth 42C	Sa growth 42C second temp
CCOc1ccc(N(C)Cc2cc(=O)oc3ccc(OCC)cc23)cc1
    106	-5	74	86
Cc1cc(C)c2c(-n3cccc3)nn(CCCC(=O)NCc3ccccc3Cl)c2n1
    108	-21	x	x
OC(c1ccccc1)c1nc2ccccc2n1-c1ccccc1 (stereo not given)
    x	11	109	102
Nn1c(SCc2ccc(F)c3ccccc23)nc2ccccc2c1=O
    x	-15	96	81
COc1ccc(-n2c(SCC(=O)N3CCc4ccccc43)nc3c([nH]c4ccccc43)c2=O)cc1
    99	x	113	82
COc1cc(F)c(S(=O)(=O)Nc2c(C)n(C)n(-c3ccccc3)c2=O)cc1OC
    99	x	89	89
Cc1noc2ncnc(N(C)CCO)c12
    95	-23	90	87
Cc1nn(CCO)c(N)c1C1(O)C(=O)N(C)c2ccccc21 (stereo not given)
    x	-54	86	92
Cc1nn(Cc2ccccc2)c(C)c1S(=O)(=O)N1CCN(C(=O)c2ccccn2)CC1
    103	-13	x	x
OC[C@H]1OC(n2cnc3c(N[C@H]4CCC[C@@H]4O)ncnc32)[C@H](O)[C@@H]1O (stereo not given in full)
    98	-31	x	x
CCSc1nsc(NC(=O)c2ccc(Cl)cc2)n1
    103	6	x	x
Cc1ccc(C(Nc2nc(C)cc(C)n2)c2cc(C)sc2NC(=O)c2ccccc2)cc1 (stereo not given)
    104	1	x	x
O=C(Nc1ccccc1)Nc1ccc(F)cc1
    103	-8	101	80
Cc1n[nH]c(=S)n(/N=C/C=C/c2ccccc2)c1=O
    101	x	102	94
CCCn1c2ccccc2c2cnn(CC(=O)NC3CCN(Cc4ccccc4)CC3)c(=O)c21
    107	-44	96	89

# Copied from the list.
# For Sa growth 42C, COc1cc(F)c(S(=O)(=O)Nc2c(C)n(C)n(-c3ccccc3)c2=O)cc1OC has the entry 89
# For HCMV NEC inh, Cc1nn(Cc2ccccc2)c(C)c1S(=O)(=O)N1CCN(C(=O)c2ccccn2)CC1 has the entry -13

# Other entries
# Every second line gives: GIV-Gai inh	HCMV NEC inh	Sa growth 42C	Sa growth 42C second temp
O=S(=O)(c1ccccc1)c1nnn2c1nc(Cl)c1ccccc12
    105	x	117	86
O=C(Cn1ncc2c3ccccc3n(Cc3ccccc3)c2c1=O)N1CCCCC1
    105	6	98	92
CN(CC(=O)NCc1ccc(Cl)cc1)S(=O)(=O)c1ccc2c(c1)c(=O)n(C)c(=O)n2C
    98	-24	100	89
C/C(=N\N=C(N)N)c1ccc(Cl)cc1
    x	-21	55	53
NC(=O)COc1ccc(C=C2C(=O)c3ccccc3C2=O)cc1
    107	x	77	82
CCN(C(=O)COc1ccc(Cl)cc1)C1CCCCC1
    105	6	110	95
O=c1[nH]c2ccccc2c(O)c1Cc1ccccc1
    99	-6	97	86
COc1cccc(NC(=O)CN2C(=O)COc3ccc(S(=O)(=O)N4CCOCC4)cc32)c1
    110	x	129	86
O=C(O)CC(C(=O)O)c1cn(Cc2ccccc2)c2ccccc12 (stereo not given)
    97	-21	96	89
O=C(Nc1ccc(S(=O)(=O)N2CCC(c3nc4ccccc4s3)CC2)cc1)c1ccccc1
    103	14	103	89
COC(=O)C1=C(C)NC(=O)NC1c1cn(-c2ccccc2)nc1-c1ccc(Cl)cc1 (stereo not given)
    111&109	-6	x	x
Cc1cc(NC(=O)Cc2cccc3ccccc23)n[nH]1
    106	x	106	89
CCCC(CCC)C(=O)Nc1cccc(-c2nc3cccnc3s2)c1
    100	-6	105	96
CC1CCN(c2c(-c3ccc(Cl)cc3)c(=O)c2=O)CC1
    110	-73	x	x
CCOC(=O)C1=C(C)N=c2s/c(=C\c3ccc(O)c(OCC)c3)c(=O)n2C1c1ccc(OC)cc1OC (stereo not given)
    145	-4	x	x
O=C(O)Cc1nc(-c2ccncc2)n[nH]1
    98	-23	109	86
CN(C)c1nc(Cl)nc(N(C#N)CN2C(=O)c3ccccc3C2=O)n1
    x	-6	74	87
CCC(=O)c1cc2c(cc1NC(=O)c1ccccc1F)OCCO2
    106	-23	89	85
Cc1ccc(Cl)cc1NCc1nnc2n1CCCCC2
    99	x	84	84
CCc1cccc(NC(=O)CSc2ncccc2C(=O)Oc2ccccc2Cl)c1
    109	x	125	89
CCOC(=O)c1c(C)[nH]c(C)c1S(=O)(=O)N1CCCC(C(=O)NCc2ccc(Cl)cc2)C1 (stereo not given)
    106	x	71	76
CCCOc1c(Br)cc(Br)cc1/C=C1\NC(=S)NC1=O
    106	-10	x	x
COc1cccc2c1ncc1c(-c3ccc(C)cc3)nn(-c3ccc(F)cc3)c12
    98	x	75	92
COCC(=O)Nc1sccc1C(=O)OC
    104	-7	91	91
O=C(NCc1ccccc1)N1CCC(CN2CCCCC2)CC1
    103	x	100	86
NC(=O)c1ccccc1OCc1cn2cc(Cl)ccc2n1
    x	-14	92	98
Cc1ccc(Nc2nc(=O)[nH]nc2C)cc1Cl
    108	-6	104	76
CCOc1ccc(NC(=O)CC2C(=O)N(c3cccc(C)c3)C(=O)N2CCC2=CCCCC2)cc1 (stereo not given)
    104	14	105	88
CC(=O)c1ccc(NS(=O)(=O)c2ccc3[nH]c(=O)[nH]c3c2)cc1
    110	x	90	83
CSc1nsc(SCC#N)n1
    97	2	92	71
O=C(c1ccc2c(c1)N(Cc1ccccc1F)C(=O)c1ccccc1S2(=O)=O)N1CCC(Cc2ccccc2)CC1
    98	-23	101	93
CCN(CC)C(=S)SC1CC(=O)N(c2ccc(S(=O)(=O)NC(C)=O)cc2)C1=O (stereo not given)
    x	-13	70	41
FC(F)(F)c1ccc2c(c1)ncc1c(-c3ccccc3)nn(-c3ccccc3)c12
    107	16	97	101
COc1ccccc1C(=O)NC1(C(F)(F)F)NC(=O)N(CCc2ccccc2)C1=O (stereo not given)
    101	-12	89	78
CC1=[N+]([O-])C(C)(C)C(c2ccc(C)o2)=[N+]1[O-]
    97	x	87	90
O=C1CCC(C2CCC(=O)CC2)CC1
    104	-13	99	84
N#CNC(=Nc1cccc(Cl)c1)Oc1ccccc1
    102	-3	117	88
CN(C)CCCn1c(N)c2c3c(sc2nc1=O)COC(C)(C)C3
    106	-9	107	101
COc1ccc(OC(=O)c2cc(-c3ccc4c(c3)OCCO4)on2)cc1
    102&101	18&-22	97	88
Cc1cc(NC(=O)c2ccco2)no1
    96	-12	112	83
CC(=O)N1C(=S)NC(=O)C1c1ccccc1 (stereo not given)
    102	-18	106	75
CCCn1cnc2sc(C(=O)O)c(C)c2c1=O
    102	x	76	87
O=C(Nc1ccc2c(c1)OCO2)c1cccc(Nc2cc(-c3ccc(F)cc3)ncn2)c1
    109	-27	x	x
CCc1ccc(N(C(C)=O)c2nc(CSc3nnc4n3CCCCC4)cs2)cc1
    x	-24	120	93
O=C(O)CSCC(=O)Nc1ccccn1
    104	-33	95	92

# Sorted by count of non-hydrogen atoms (descending): part of the list above.
# Every second line gives: GIV-Gai inh	HCMV NEC inh	Sa growth 42C	Sa growth 42C second temp
O=C(Nc1ccc2c(c1)OCO2)c1cccc(Nc2cc(-c3ccc(F)cc3)ncn2)c1
    109	-27	x	x
COc1ccccc1C(=O)NC1(C(F)(F)F)NC(=O)N(CCc2ccccc2)C1=O (stereo not given)
    101	-12	89	78
CCN(CC)C(=S)SC1CC(=O)N(c2ccc(S(=O)(=O)NC(C)=O)cc2)C1=O (stereo not given)
    x	-13	70	41
CN(C)CCCn1c(N)c2c3c(sc2nc1=O)COC(C)(C)C3
    106	-9	107	101
N#CNC(=Nc1cccc(Cl)c1)Oc1ccccc1
    102	-3	117	88
CCCn1cnc2sc(C(=O)O)c(C)c2c1=O
    102	x	76	87

# (continued)
# Every second line gives: GIV-Gai inh	HCMV NEC inh	Sa growth 42C	Sa growth 42C second temp
CC1(C(=O)NC2CCCCC2)Cn2c(cc3sccc32)C(=O)N1Cc1cccc(Cl)c1 (stereo not given)
    100	-7	x	x
CCOC(=O)NC1c2ccccc2Sc2ccc(Cl)cc21 (stereo not given)
    x	-4	96	96
N=c1c2c(-c3ccccc3)c(-c3ccccc3)oc2ncn1CCN1CCOCC1
    100	-29	67	74
Cc1cc(C)cc(NC(=O)CSc2nc(=O)[nH]c3c2CCC3)c1
    104	x	120	98
O=C(NCCN1CCN(c2nccc(C(F)(F)F)n2)CC1)c1ccc(Cl)cc1
    104	10	114	98
CCOC(=O)C1(CC(=O)c2ccc(F)cc2)C(=O)Oc2ccccc2C1c1ccccc1 (stereo not given)
    110	-24	97	86
CCc1nnc(-c2cn(CC(=O)NC3CCS(=O)(=O)C3)c3ccccc23)o1 (stereo not given)
    98	-17	x	x
COc1ccc(-c2nc3c4ccccc4ncn3n2)cc1
    99	0	x	x
COc1cc(S(=O)(=O)N2CCCCC2)ccc1N=Cc1c(C)[nH]n(-c2ccccc2)c1=O
    96	2	111	111
CC(C)NC(=O)c1ccc(Cl)c(-n2cnc3cccnc32)c1
    101	-7	x	x
O=C(O)c1cccc(Oc2ncccn2)c1
    98	-4	115	88
CC(=O)c1cccc(NC(=O)CSc2nc(=O)n(Cc3ccco3)c3c2CCC3)c1
    101	x	141	89
COc1cc2c(cc1OC)CN(C(=S)NCCCN1CCOCC1)CC2
    x	-22	87	91
O=C(Nc1ccc2c(c1)OCCCO2)c1cn(-c2ccccc2)nc1-c1cccs1
    x	-19	74	93
COc1ccccc1-c1nc(SCC(=O)Nc2ccc(C)c(C)c2)n[nH]1
    102	-15	123	85

# An excerpt from above, showing only HCMV NEC inh, GIV-Gai inh and Sa growth 42C.
molecule | HCMV NEC inh | GIV-Gai inh | Sa growth 42C
CCOC(=O)NC1c2ccccc2Sc2ccc(Cl)cc21 (stereo not given) | -4 | x | 96
Cc1cc(C)cc(NC(=O)CSc2nc(=O)[nH]c3c2CCC3)c1 | x | 104 | 120
O=C(Nc1ccc2c(c1)OCCCO2)c1cn(-c2ccccc2)nc1-c1cccs1 | -19 | x | 74
CCc1nnc(-c2cn(CC(=O)NC3CCS(=O)(=O)C3)c3ccccc23)o1 (stereo not given) | -17 | 98 | x
CCOC(=O)C1(CC(=O)c2ccc(F)cc2)C(=O)Oc2ccccc2C1c1ccccc1 (stereo not given) | -24 | 110 | 97
COc1ccccc1-c1nc(SCC(=O)Nc2ccc(C)c(C)c2)n[nH]1 | -15 | 102 | 123

# Next part
# Every second line gives: GIV-Gai inh	HCMV NEC inh	Sa growth 42C	Sa growth 42C second temp
COc1ccc(NC(=O)c2ccc3c(=O)n4nc(Nc5cccc(Cl)c5C)sc4nc3c2)cc1
    101	x	87	95
CC1C=CC(C)C(C(=O)O)C1C(=O)O (stereo not given)
    97	-9	106	97
CC(=O)N1CCN(C(=O)CSc2nc(-c3ccccc3)c(-c3ccccc3)[nH]2)CC1
    x	-11	102	89
Cc1ccc(C)c(Nc2nc(C)cc(=O)[nH]2)c1
    105	5	x	x
CCOC(=O)c1c(C)[nH]c(C)c1S(=O)(=O)N(C)CC(=O)Nc1ccc(CC)cc1
    110	x	117	88
CCCCC1CCC(C(=O)Nc2nonc2C)CC1 (stereo not given)
    101	-10	94	84
COc1cccc(Nc2ncc3c(n2)CCN(Cc2ccccc2F)C3)c1
    106	19	x	x
CC(C)CCCC(C)N (stereo not given)
    x	-50	91	86
Cc1onc(-c2ccccc2)c1CNC(=O)c1c(-c2ccc(F)cc2)noc1C
    108	-2	102	98
COc1ccc(CC/C(C)=C2/C(=O)Nc3ccccc32)cc1
    105	-6	134	85
O=S(=O)(c1cccc(C(F)(F)F)c1)N1CCC(N2CCCCC2)CC1
    107	4	105	90
CCCc1cc(=O)[nH]c(SC/C(O)=C(\C#N)c2nc3ccccc3[nH]2)n1
    x	-6	97	94
O=C(COC(=O)c1cnccn1)c1ccc2c(c1)CCCC2
    x	1	106	95
CCc1nn(CC(=O)NCCc2ccccc2)c(=O)c2cc3sccc3n12
    100	-3	97	92
CCCCN(Cc1cccs1)S(=O)(=O)c1cc(-c2cc(C)no2)ccc1C
    103	x	97	94
Clc1cccc(N2CCN(CCNc3nc4ccccc4n4cnnc34)CC2)c1
    106	2	131	90
C=CCNC(=S)N1CCc2sccc2C1c1ccc(OC)cc1 (stereo not given)
    107	43	64	77
CC(C)(C)NCC(O)COc1cccc2c1CCCC2=O (stereo not given)
    x	5	103	99
O=C(NC1CCCC1)C(c1ccccc1)N(Cc1ccccc1F)C(=O)c1ccco1 (stereo not given)
    102	5	111	84
O=C(NCCNC1CCCCC1)c1cccs1
    x	-15	91	87
COc1ccc(OCC(=O)Nc2ccc(N3CCN(S(C)(=O)=O)CC3)cc2)cc1
    105	-6	107	94
CN(C)c1ccc(CNCCC2(c3ccccc3)CCOC(C)(C)C2)cc1 (stereo not given)
    x	14	112	95
CCc1ccc(-c2nc(CN3CCCC(C(=O)N4CCN(c5cc(Cl)ccc5C)CC4)C3)c(C)o2)cc1 (stereo not given)
    101	-27	118	89
CC1CCN(Cc2c(O)ccc3ccccc23)CC1
    103	-25	106	80

# Some of the entries above, set out differently:
SMILES	GIV-Gai inh	HCMV NEC inh	Sa growth 42C	Sa growth 42C second temp
COCC(=O)Nc1sccc1C(=O)OC	104	-7	91	91
O=C(NCc1ccccc1)N1CCC(CN2CCCCC2)CC1	103	x	100	86
NC(=O)c1ccccc1OCc1cn2cc(Cl)ccc2n1	x	-14	92	98
